# NPYLR7 ag: mosquito NPYLR7 agonism. HEK293T NPYLR7/Galpha15, GCaMP6s calcium fluorescence. activation, % at 10 µM. 270,000 compounds, 0.15% hits; in the data active = activation above about 40%;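 also: 0% = vehicle and 100% = reference agonist at the receptor; some compounds past the cut are filed as inactive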
# NPYLR7 ag max-min: further read-out of NPYLR7 ag, marked with its call; activation, %; measured here: Max-Min RFU normalised activation; some inactives read as strong as hits;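 span of the calcium signal over five minutes; 0% = vehicle and 100% = native peptide agonist; compound fluorescence can raise it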
# Starred values were filed as active, the others as inactive; & = joins results of further samples. Some of the compounds tested; the hit share may differ from the screen's.
SMILES,NPYLR7 ag,NPYLR7 ag max-min
O=C(Cn1nnnc1CN1CCCC1)N1CCCN(Cc2cccs2)CC1,-4,-5
CCOc1ccc(/C=C2N=C(/C=C/c3ccc(C)cc3)OC\2=O)cc1,0,-3
COC(=O)c1cc(NC(=O)c2oc(Br)cc2C)cc(C(=O)OC)c1,-2,-7
CC1CC(N2CCOC(CN(C)c3cccnn3)C2)C(=O)O1 (centres undefined),0,1
O=C(CN1CCCC1c1ccsc1)Nc1ccccc1Br (centres undefined),1,-1
CCc1ccccc1SCc1ccc(C(=O)N2C3CCC2CC(Oc2cccc(C#N)c2)C3)cc1 (centres undefined),18,3
CC(C)CN(CCC(=O)N1CCCC1)c1nc(-c2ccco2)nc2cc(Cl)ccc12,9,13
Cn1ccc(CC(=O)N2CC[C@@H](N3CCN(c4ccccc4F)CC3)[C@H](O)C2)c1,11,6
CCOC(=O)CSc1nc2nccnc2c(=O)n1Cc1ccccc1,5,4
O=C(Nc1ccccc1)NC1CCN(c2ccccc2C(=O)NCC2CCCO2)CC1 (centres undefined),3,3
CC(C)(C)NC(=O)N(Cc1ccc(C(F)(F)F)cc1)CC1CC(c2ccc(F)cc2)=NO1 (centres undefined),22,29
O=C(NCCc1ccccc1)c1cccc(OC2CCN(Cc3cccnc3)CC2)c1,17,12
Cc1c(C(=O)NC(C)(C)CN2CCOCC2)sc2ncn(C)c(=O)c12,8,6
O=C1CN(C2CCN(Cc3ccccc3)C2)CC(OCc2ccccn2)CN1CC1CCOCC1 (centres undefined),-19,-18
CCN(CC)S(=O)(=O)c1cc(NC(=O)C(C)N2CCc3ccccc32)ccc1C (centres undefined),4,3
CCc1[nH]n(-c2ccc(Cl)c(Cl)c2)c(=O)c1C1=C([n+]2ccccc2)C(=O)N(c2cccc(C)c2)C1=O,-4,3
Cn1cc(Cl)c(C(=O)NC2CCCC2)n1,0,8
CCc1nnc(NC(=O)CSc2nc3[nH]ncc3c(=O)[nH]2)s1,-2,-2
COC(=O)C1C(=O)CSC1=Nc1ccc(C(F)(F)F)cc1 (centres undefined),0,11
CCC(OC(=O)c1ccc(=O)n(C)n1)C(C)(C)c1ccccc1 (centres undefined),-4,17
COCCOc1nc(-c2ccccc2C)n(-c2ccc(N)cc2)n1,7,0
NC(=O)c1ccc(NS(=O)(=O)c2c(F)cc(F)cc2Br)cc1,3,3
Cc1cc(N2CCCC2)ccc1NC(=O)CN1CCN(S(=O)(=O)c2ccc(F)c(F)c2)CC1,-2,-3
O=C(COc1coc(CN2CCc3ccccc3C2)cc1=O)Nc1ccccc1,3,0
CC(NC(=O)c1cnn2c(C(F)(F)F)cc(-c3ccccc3)nc12)C1CC2CCC1C2 (centres undefined),0,0
# The results go on.
SMILES,NPYLR7 ag,NPYLR7 ag max-min
O=C(NC(c1ccc(F)cc1)c1ccc(SCc2ccccc2)cc1)c1ccccc1Oc1ccccc1 (centres undefined),-18,-26
S=c1nc(-c2ccccc2)[nH]c2c1Cc1ccccc1O2,8,7
CC(NC(=O)CN1CCCCC1)c1ccc(F)cc1F (centres undefined),8,4
CC(=NNc1ccc([N+](=O)[O-])cc1)c1ccc(OCCOc2ccc([N+](=O)[O-])cc2)cc1,-1,-4
COCCCN(CC(=O)Nc1cc(C(C)(C)C)nn1-c1ccccc1Cl)C(=O)c1ccc(OC)cc1,0,11
O=C(CCC1CCN(C(=O)C2=CCCC2)CC1)N1CCC(Cc2ccccc2)CC1,15,6
Cc1ccccc1Cn1cc(SC(=N)N)c2ccccc21,-9,-14
CN(C)c1ncccc1CNC(=O)COc1ccccc1Cl,-3,-6
CS/C(=C/c1ccc(C)s1)S(C)=O (centres undefined),1,4
CCOC(=O)CNC(=O)CCc1c(C)nn(-c2nc(C)cc(=O)[nH]2)c1C,0,-2
C=CCOCC(O)CN(CC=C)CC1CC(c2ccccc2)=NO1 (centres undefined),-3,2
CCn1cc(C(=O)NCC(C)(CC)N2CCOCC2)c2ccccc21 (centres undefined),1,-2
C(=N/n1cnnc1)/c1ccc(-c2cccc3ccccc23)o1,-9,-15
CC(C)c1cccc(OCCCCN2CCNCC2)c1,7&5,8&4
Cc1cccnc1NC(=O)CCc1ccc2c(c1)OCCO2,10&8,7&0
COc1ccccc1C(=O)N1CCC(CCc2ccccc2)CC1,26,23
C=CCN1C(=O)NC(c2ccsc2)C2=C1CN(CCCCCC)C2=O (centres undefined),-7,-2
CCOCCn1cc(C2CCN(C(=O)c3c(-c4c(F)cccc4Cl)noc3C)CC2)c2ccccc21,4,0
O=S(=O)(NCc1nnnn1-c1ccc(Cl)cc1)c1cccc(C(F)(F)F)c1,-1,-3
COc1ccccc1S(=O)(=O)Nc1ccc(Cl)cc1C,2,1
CCN(Cc1cnn(C)c1)C(=O)c1ccc(-c2ncn[nH]2)cc1,2,1
COc1ccccc1-n1c(SCc2nc(C(=O)NC(C)c3ccccc3)cs2)nnc1-c1ccco1 (centres undefined),-7,2
CCC(C(=O)NCc1ccccc1)N1CCN(Cc2ccc(Br)s2)CC1 (centres undefined),9,3
COc1cccc(C(=O)N(Cc2nccn2Cc2ccc(F)cc2)CC2CC2)c1,5,15
CC(C)c1csc(CN2CCCC(CCC(=O)N3CCOCC3)C2)n1 (centres undefined),-4,-4

# Arranged by SMILES length (low to high): some entries from above.
SMILES,NPYLR7 ag,NPYLR7 ag max-min
Cc1cccnc1NC(=O)CCc1ccc2c(c1)OCCO2,10&8,7&0
CCN(Cc1cnn(C)c1)C(=O)c1ccc(-c2ncn[nH]2)cc1,2,1
O=C(CCC1CCN(C(=O)C2=CCCC2)CC1)N1CCC(Cc2ccccc2)CC1,15,6

# Next section.
SMILES,NPYLR7 ag,NPYLR7 ag max-min
Cc1cc(C#N)ccc1S(=O)(=O)N1CCN(c2ccnc(N(C)C)n2)CC1,-1,-7
Cc1cccc(CN2CCN(c3cccc(Cl)c3)C(=O)C2C)c1 (centres undefined),-1,4
Cc1n[nH]c(C)c1CCCN(C)c1cc(N(C)C)ncn1,2,7
CCCCCCn1c(C)cn2c3c(=O)n(CCN4CCCCC4)c(=O)n(C)c3nc12,4,0
COC(=O)C1CCN(C(=O)CCc2csc3nc(-c4ccc(OC)cc4)cn23)CC1,5,3
CC1(C)Cc2c(cnn2-c2cccc(F)c2)C(NC(=O)c2cccc(Cn3cccn3)c2)C1 (centres undefined),11,6
Cc1ccc(-c2ccc3nnc(SCc4cccnc4)n3n2)cc1,-12,-9
O=C(C1CCC1)N(CCN1CCOCC1)Cc1nccn1Cc1ccccc1C(F)(F)F,6,16
Cc1cc(C)n2nc(C)c(C(=O)N3CCCC4(CC3)CNC(=O)O4)c2n1 (centres undefined),-1,-10
CC(C)NC(=O)CNc1nccc(C2CCCC2)n1,7,3
COc1cn(CC(=O)N2CCCc3ccccc32)c(CSc2ccccc2)cc1=O,-2,-8
COC(=O)C1=C(O)/C(=C\c2ccc(OC)c(O)c2)SC1=Nc1ccc([N+](=O)[O-])cc1,-4,3
NCc1cn(CC2CCCN(C(=O)NC34CC5CC(CC(C5)C3)C4)C2)nn1 (centres undefined),12,1
CN(CCO)C(=O)Nc1c[nH]c2ccccc12,3,-3
CCCN(CC1CC1)C(=O)COC(=O)c1cc(S(=O)(=O)N(C)C)ccc1N1CCCC1,6,7
CC(=O)c1ccccc1NC(=O)c1nn(-c2cccc(Cl)c2)nc1C,-3,-6
O=S(=O)(c1cnc[nH]1)N1CCc2cc(Cl)cc(Cl)c2C1,7,6
Cc1ccccc1C(CC(=O)NCCN(C)C)c1ccccc1 (centres undefined),2,-1
COc1ccc(OC)c(-n2c(C)cn3c4c(=O)n(CCCO)c(=O)n(C)c4nc23)c1,0,4
O=C(CCc1ccccc1)N1CCCC(N2CCN(c3ccc(F)cc3)CC2)C1 (centres undefined),-1,1
O=c1[nH]c(C2CSCCS2)nc2cc(C(F)(F)F)ccc12 (centres undefined),-18,-15
Cc1ccc(CNC(=O)N2CCN(Cc3ccc4c(c3)OCO4)CC2)cc1,22,19
COCC(O)CN1CCCC1c1noc(C)n1 (centres undefined),-1,-7
CC(OC(=O)C1CCC1)C(=O)N1CCSc2ccccc21 (centres undefined),3,2
CCc1ccc2c(c1)S(=O)(=O)C(C(F)(F)F)CO2 (centres undefined),0,-6
# (list continues)
SMILES,NPYLR7 ag,NPYLR7 ag max-min
COCCCN(Cc1c(-c2cccc(C)c2)noc1N1CCOCC1)C(=O)c1cccs1,-2,6
COCCN1CCCC2(CCN(Cc3cnc(-c4cccc5ccccc45)nc3)C2)C1 (centres undefined),15,2
O=C(c1cc2cc(F)ccc2[nH]1)N1CCN(C(=O)C2CC2)CC1,10,3
CC(C)OCCNC(=O)c1cc(N2CCN(c3cccc(C(F)(F)F)c3)CC2)nc2ccccc12,3,0
CC(C)Cn1c2c(=O)[nH]c(=O)n(C)c2n2c(-c3c(F)cccc3Cl)nnc12,9,2
O=C1Nc2c(Cl)cc(Cl)cc2C1=NN=Cc1cc(Br)ccc1O,13,10
O=C(c1ccc2c(c1)OCO2)N1CCC(n2c(-c3ccccc3)nc3ccc(F)cc32)CC1,3,5
c1cc(Nc2ccc3ncsc3c2)nc(N2CCN(Cc3ccc(-c4csnn4)cc3)CC2)n1,-3,3
CN(C)c1ncccc1CNC(=O)CC1CC2CCC1C2 (centres undefined),1,2
COc1ccc(OC)c(C2CCCN2C(=O)C=Cc2ccccc2F)c1 (centres undefined),-1,-1
CC(Oc1ccccc1)C(=O)NC1CC2CCC(C1)N2Cc1ccc2c(c1)OCO2 (centres undefined),1,5
CCC1CN(Cc2cnn(CC)c2)CCC(=O)N1Cc1ccccc1 (centres undefined),2,-5
COCCN(CCC(=O)NCCc1ccccc1)c1nc(Cc2ccc(C)cc2)ns1,3,1
COC(=O)c1ccc(C(=O)OC)c(NC(=O)CCl)c1,-5,-9
Cn1c(=NC(=O)c2cc(Cl)sc2Cl)sc2cc(S(C)(=O)=O)ccc21,-1,5
Cc1ccccc1-n1c(-c2ccc(Cl)cc2)cc(C(=O)NCCCN2CCCCC2C)c1C (centres undefined),-5,-9
Cc1ccc(Cn2nc(C)c(C(=O)N(C)Cc3ccccc3O)c2Cl)cc1,2,7
CCCS(=O)(=O)Nc1ccc(N(C)C)c(CN(C(=O)c2ccccc2Cl)C2CC2)c1,2,4
COCCn1cc(C(=O)NCCc2ccccc2OC)c2nn(-c3ccccc3)c(=O)c-2c1,2,1
O=C(O)CSc1nnc(CCc2ccccc2)n1-c1cccnc1,1,0
O=C(Nc1ccc(N2CCc3ccccc3C2)c(C(=O)NC2CCCCC2)c1)c1cc(C(F)(F)F)cc(C(F)(F)F)c1,-1,10
COc1ccc(OC)c2sc(N(CCCN3CCOCC3)C(=O)c3ccc(Cl)s3)nc12,-2,-5
CN(Cc1cccc(F)c1)C(=O)CNC(=O)c1ccoc1,3,2
O=C(c1cccc2nccnc12)N1CCC(n2cc(-c3ccccc3)nn2)CC1,8,7
CN(C)CCCN1C(=O)C(O)=C(C(=O)c2cccs2)C1c1cccnc1 (centres undefined),0,-1

# Part of the list above, bar-delimited:
molecule | NPYLR7 ag | NPYLR7 ag max-min
Cc1ccc(Cn2nc(C)c(C(=O)N(C)Cc3ccccc3O)c2Cl)cc1 | 2 | 7
CCCS(=O)(=O)Nc1ccc(N(C)C)c(CN(C(=O)c2ccccc2Cl)C2CC2)c1 | 2 | 4

# Compound profiles, from the list above:
# `O=C(c1cc2cc(F)ccc2[nH]1)N1CCN(C(=O)C2CC2)CC1` is listed as NPYLR7 ag = 10; NPYLR7 ag max-min = 3
# `CN(C)c1ncccc1CNC(=O)CC1CC2CCC1C2` (centres undefined) is listed as NPYLR7 ag = 1; NPYLR7 ag max-min = 2

# Pulled by compound from the entries so far:
SMILES,NPYLR7 ag,NPYLR7 ag max-min
c1cc(Nc2ccc3ncsc3c2)nc(N2CCN(Cc3ccc(-c4csnn4)cc3)CC2)n1,-3,3
Cc1ccccc1C(CC(=O)NCCN(C)C)c1ccccc1 (centres undefined),2,-1
Cc1ccc(Cn2nc(C)c(C(=O)N(C)Cc3ccccc3O)c2Cl)cc1,2,7
COc1ccc(OC)c2sc(N(CCCN3CCOCC3)C(=O)c3ccc(Cl)s3)nc12,-2,-5
COc1ccccc1C(=O)N1CCC(CCc2ccccc2)CC1,26,23
COc1cccc(C(=O)N(Cc2nccn2Cc2ccc(F)cc2)CC2CC2)c1,5,15
COc1ccccc1S(=O)(=O)Nc1ccc(Cl)cc1C,2,1

# (listing goes on)
SMILES,NPYLR7 ag,NPYLR7 ag max-min
CCCOC1CCCN(Cc2nc(-c3cccc(Cl)c3)no2)C1 (centres undefined),-1,-5
COC(=O)c1ccc(N2C(=O)CC(N3CCC(C(=O)O)CC3)C2=O)cc1 (centres undefined),1,-1
N#Cc1cc2c(nc1SCC(=O)c1ccc(Cl)cc1)CCCC2,-5,-8
COc1ccccc1N=P12CN3CN(CN(C3)C1)C2,-4,-6
CC(C)(C)c1ccc(C(=O)Nc2ccc(-c3noc(-c4cccc([N+](=O)[O-])c4)n3)cc2)cc1,-3,-9
C[N+](C)(C)CC(=O)O,-9&5,-16&-6
Cc1c(NCc2ccccn2)cccc1C(=O)N1Cc2ccccc2C1,19,9
O=C1CN(CC(=O)c2c[nH]c3ccccc23)CCN1,-5,-2
COC(=O)c1ccccc1S(=O)(=O)N1CCC2(CCCNC2)C1 (centres undefined),2,0
CC1(C(=O)NC2Cc3ccccc3C2)CCN1C(=O)C/C=C/c1ccccc1 (centres undefined),-5,2
CC(C)NCc1c(-c2ccccc2)noc1N1CCN(C)CC1,9,6
CC(C)c1nc(CCN(C)C(=O)C(C)N2C(=O)c3cccc4cccc2c34)no1 (centres undefined),3,-1
CC(=O)Nc1cc(NC(C)=O)cc(C(=O)OC2CC(C)OC2=O)c1 (centres undefined),5,5
O=C(O)CCc1nn2c(=O)c3ccccc3nc2s1,0,-3
CN(Cc1ncc[nH]1)Cc1cccn1S(=O)(=O)c1ccccc1,0,-1
COC(=O)c1ccc(-c2nc(CN(C)CC3COc4ccccc4O3)c(C)o2)cc1 (centres undefined),9,2
CCc1c(C(=O)N2CCNC(=O)C2)cnn1-c1cccc(Cl)c1,-4,-4
COC(=O)[C@@H]1C[C@@H](NC(=O)c2cc(C)nc(C)n2)CN1C,15,9

# High-throughput results (PubChem BioAssay)
